AmpC inh no det: Promiscuous and Specific Inhibitors of AmpC Beta-Lactamase (assay without detergent) | P00811 | AmpC nitrocefin hydrolysis, absorbance 480 nm, no detergent; potencies from a single point are estimates | Potency, µM (titrated, usually from 28.7 µM), for inactives: at the top dose activity change, negative = inhibition | 1.8% of 71,000 active | AID 585, 2007; active = falling curve, for most hits resting on a single point; inconclusive = weak or doubtful change; inactive = flat or rising curve; note: % of control where 0% means no effect; about half of the hits show no inhibition at the top dose; a quarter of the inactives give rising signals
Target sequence (P00811 whole entry, looked up): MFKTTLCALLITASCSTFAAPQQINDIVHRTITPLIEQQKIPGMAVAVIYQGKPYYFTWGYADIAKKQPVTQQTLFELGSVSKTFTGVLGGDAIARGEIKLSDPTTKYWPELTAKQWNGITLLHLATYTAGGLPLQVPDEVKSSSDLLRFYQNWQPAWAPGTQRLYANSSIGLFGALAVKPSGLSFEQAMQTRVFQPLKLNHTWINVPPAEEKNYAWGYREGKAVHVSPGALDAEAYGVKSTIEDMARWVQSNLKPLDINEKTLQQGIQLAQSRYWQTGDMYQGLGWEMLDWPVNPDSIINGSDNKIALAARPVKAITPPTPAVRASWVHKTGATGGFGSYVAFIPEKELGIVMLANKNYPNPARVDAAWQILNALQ
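AmpC, 20 mM phosphate pH 7.0; 15 min cpd preinc, RT; start with nitrocefin (800 uM stock); A480 kinetic read, 20 s intervals, 4 min. No-enzyme wells = negative control.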
* hit, by the source's call; & = joins results of further samples; [ ] = another dose, or the depositor's remark. Potency is the fitted concentration of half-maximal effect.

SMILES	AmpC inh no det
COC(=O)CNc1nc(C2CC2)nc2c1nnn2Cc1ccccc1Cl	2%
CCn1c(-c2ccc(C(C)(C)C)cc2)n[nH]c1=S	11%
NC(=O)c1ccc(-n2nnnc2SCc2ccc(F)cc2)cc1	-5%
CCn1c(=O)cc(OCC(=O)N2CCCCCC2)c2ccccc21	22%
CCOC(=O)Cc1csc(NC(=O)C(C)(C)C)n1	5%
Cc1cc(C)nc(SCc2nnc(SCC(=O)NCc3ccco3)n2-c2ccccc2)n1	51%
Cc1nc(N2CCC(C)CC2)c2c(C)c(C(=O)O)sc2n1	-13%
COc1ccc(NC(=O)N2CC3(CCN(C(=O)c4csnn4)CC3)C2)cc1	4%
CN(C)Cc1ccccc1-c1ccc2ncnc(NC3CC3)c2c1	-1%
CCCCCCNS(=O)(=O)c1nc2nc(C)cc(C)n2n1	10%
COc1ccc(Br)cc1C(=O)Nc1ccc(N2CCN(S(C)(=O)=O)CC2)cc1	66%
Cc1nc2c3ccccc3n(CC#N)c(=O)n2n1	2.5µM*[single pt active]
COc1ccccc1-c1nn2c(-c3ccccc3Cl)nnc2s1	-1%
O=C(c1cc(-c2ccco2)on1)N1CCN(c2ccccc2)CC1	18%
CCCCn1c(C)c(C(=O)O)c2cc(OC)ccc21	3%
Cc1oc(C(C)(C)C)c(CN2CCCC2)c1C(=O)O	3%
Cc1sc(NC(=O)c2cccs2)c(C(N)=O)c1C	-12%
CCOc1ccccc1NC(=O)CSc1nnnn1-c1ccc(C(=O)OC)cc1	30%
O=C(Nc1ccc(N2CCOCC2)c(Cl)c1)c1ncn[nH]1	-11%
Cc1nc(CCNC(=O)c2cccs2)cs1	-2%
C=CCOC(=O)C(C#N)c1nc2ccccc2nc1N1CCN(c2ccccc2OC)CC1 (centres undefined)	22%
CC(C)CCNC(=O)C(C)N(C(=O)Cn1nnc(-c2ccc(F)cc2)n1)C1CCCC1 (centres undefined)	66%
COC(=O)CN1C(=O)N(c2ccccc2)C(N(O)C(=O)Nc2ccccc2)C1(C)C (centres undefined)	8%
COc1ccc(CNC(=O)C2CCN(S(=O)(=O)c3cc(OC)ccc3OC)CC2)cc1	76%
CCc1nnc(NC(=O)CSc2nc3c(c(=O)n2-c2ccccc2OC)SCC3)s1	32%

The results go on.
SMILES	AmpC inh no det
Cc1ccc(C(=O)NCC(=O)O)cc1S(=O)(=O)N1CCCCC1	-2%
Cc1nn(C(C)(C)C)c(OC(=O)c2ccc3c(c2)OCO3)c1S(=O)(=O)c1ccccc1	28%
COc1ccc(C(O)P(=O)(OC2CCCCC2)c2ccc(N(C)C)cc2)cc1OC (centres undefined)	-23%
CC1CCc2nn(CC(=O)N3CCN(C(=O)c4ccco4)CC3)cc2C1 (centres undefined)	12%
O=C(c1c(O)c2ccccc2oc1=O)C1CCC1	-4%
O=C(CSc1nnnn1-c1ccccc1)CC(=O)Nc1ccc(Cl)cc1	-19%
Cn1c(=O)c2c(nc(-n3ccnc3)n2Cc2ccccc2)n(C)c1=O	11%
COC(=O)c1c(N)n(-c2ccc(N3CCOCC3)cc2)c2nc3ccccc3nc12	41%
CN(C)Cc1ccccc1-c1nccc(NCc2cccs2)n1	14%
COc1ccccc1OCCCn1cc(C#N)c2ccccc21	11%
Cc1cccc2sc(NC(=O)CCNS(=O)(=O)c3cccs3)nc12	-8%
N#CCCn1c(=O)cnc2cnc(N3CCOCC3)nc21	-6%
CN(C)C(=O)c1ccc(-c2cc(NCc3cccnc3)ncn2)cc1	-3%
COc1cc(C(=O)NC2CC3CCCC(C2)N3C2CC2)cc(OC)c1OC (centres undefined)	-2%
O=C1CC(=O)N(Cc2cccs2)C(=O)N1	-8%
Cc1cc(=O)cc(C)n1-c1ccc2c(c1)nc(C)n2-c1ccccc1	20%
CN(C)S(=O)(=O)Nc1ccc2c(c1)OCO2	-6%
CCOC(=O)c1cnc2ccc(Cl)cc2c1N1CCN(C)CC1	31%
Cn1c(COc2ccc(Cl)cc2)nnc1SCc1ncc(-c2ccccc2)o1	89%
CCCCOc1ccc(C(C)(O)CCN2CCOCC2)cc1 (centres undefined)	30%
COC(=O)[C@H](CCSC)NC(=O)Nc1ccc(C(C)C)cc1	1%
Cc1ccccc1-c1cncnc1NC1CCNCC1	-7%
CC(=Nc1ccc(O)cc1)c1sc2ccccc2c1O	-9%
c1ccc2c(c1)OCC(CNc1ncnc3nc[nH]c13)O2 (centres undefined)	8%
COc1ccccc1-c1nnc2n1N=C(C(C)(C)C)CS2	15%

Six of the compounds above, bar-delimited.
canonical_smiles | AmpC inh no det
CCOC(=O)Cc1csc(NC(=O)C(C)(C)C)n1 | 5%
CN(C)Cc1ccccc1-c1nccc(NCc2cccs2)n1 | 14%
Cn1c(COc2ccc(Cl)cc2)nnc1SCc1ncc(-c2ccccc2)o1 | 89%
COc1ccc(NC(=O)N2CC3(CCN(C(=O)c4csnn4)CC3)C2)cc1 | 4%
O=C(Nc1ccc(N2CCOCC2)c(Cl)c1)c1ncn[nH]1 | -11%
CN(C)Cc1ccccc1-c1ccc2ncnc(NC3CC3)c2c1 | -1%

7 compounds already listed, ordered by SMILES length, lowest first.
SMILES	AmpC inh no det
O=C1CC(=O)N(Cc2cccs2)C(=O)N1	-8%
N#CCCn1c(=O)cnc2cnc(N3CCOCC3)nc21	-6%
COC(=O)[C@H](CCSC)NC(=O)Nc1ccc(C(C)C)cc1	1%
Cc1ccc(C(=O)NCC(=O)O)cc1S(=O)(=O)N1CCCCC1	-2%
O=C(CSc1nnnn1-c1ccccc1)CC(=O)Nc1ccc(Cl)cc1	-19%
Cn1c(COc2ccc(Cl)cc2)nnc1SCc1ncc(-c2ccccc2)o1	89%
Cc1nn(C(C)(C)C)c(OC(=O)c2ccc3c(c2)OCO3)c1S(=O)(=O)c1ccccc1	28%

Back to the main list; the 2 compounds before the break are reprinted first.
SMILES	AmpC inh no det
c1ccc2c(c1)OCC(CNc1ncnc3nc[nH]c13)O2 (centres undefined)	8%
COc1ccccc1-c1nnc2n1N=C(C(C)(C)C)CS2	15%
CCNc1ncc2ncc(=O)n(Cc3ccc(F)cc3)c2n1	28%
O=C(O)C1CC(c2ccccc2F)=NO1 (centres undefined)	-9%
CCn1c(SCc2nc3ccccc3s2)nnc1-c1cccs1	8%
CN1C(=O)CC(N2CCC(c3nc4ccccc4s3)CC2)C1=O (centres undefined)	19%
COc1ccccc1N1CCN(C(=O)c2nn(-c3ccccc3OC)c(=O)c3ccccc23)CC1	96%
C=CCn1c(Sc2nnc(C)s2)nc2c1c(=O)[nH]c(=O)n2C	-2%
CCC(=O)O[C@@H]1[C@H](C)O[C@H](O[C@H]2[C@@H](N(C)C)[C@H](O)[C@@H](O[C@@H]3[C@@H](CC=O)C[C@@H](C)[C@@H](O)/C=C\C=C/C[C@@H](C)OC(=O)C[C@@H](OC(=O)CC)[C@H]3OC)O[C@H]2C)C[C@]1(C)O	133%[12.8 µM]
Cn1c(=O)oc2cc(S(=O)(=O)N3CCOCC3)ccc21	-1%
CN1CC(=O)NC1=NC(=O)C12CC3CC(CC(C3)C1)C2	8%
O=C(CSc1nnc(CNC(=O)c2cccs2)o1)c1ccc(Cl)cc1	14%
COC(=O)c1ccc(Cl)c(NC(=O)CN2CCOCC2)c1	21%
Cn1c(SCC(=O)NCc2ccc3c(c2)OCO3)nnc1-c1cccs1	13%
CCOc1ccc(NC(=O)CSc2nc3cccnc3n2CCOC)cc1	19%
O=C(CSc1nnnn1Cc1ccccc1)N1CCN(c2ccccc2)CC1	28%
CCOC(=O)CNC(=O)Cn1cnc2sc(C)c(S(=O)(=O)N3CCC(C)CC3)c2c1=O	4%
Cc1cccc(-c2nc3ccccc3c3nncn23)c1	16%
Cc1ccc(O)c(-c2cc3ccccc3[nH]2)c1	-12%
CCCCc1c(O)c2ccccc2[nH]c1=O	-5%
CC(=O)Nc1ccc(NS(=O)(=O)c2cc(C)sc2C)cc1	-7%
Cc1cc(C)cc(NC(=O)Cn2ncn3c(cc4ccccc43)c2=O)c1	-10%
COc1ccc(Nc2cc(C)nc3ncnn23)c(OC)c1	-10%
Cc1nnc(SCC(=O)NC(C)c2ccccc2)[nH]c1=O (centres undefined)	-12%
CCCOc1ccc2oc(=O)c3c(c2c1)CCCN3C(=O)CN(C)Cc1ccccc1	90%
COc1ccc(CCNC(=O)Cc2nn(C)c(=O)c3ccccc23)cc1OC	0%
COc1ccccc1N(CC(=O)NCc1ccccn1)S(C)(=O)=O	13%

A run of entries taken from the entries so far, as a working copy:
SMILES	AmpC inh no det
CCNc1ncc2ncc(=O)n(Cc3ccc(F)cc3)c2n1	28%
O=C(O)C1CC(c2ccccc2F)=NO1 (centres undefined)	-9%

(list continues)
SMILES	AmpC inh no det
O=c1[nH]c2cc(C(F)(F)F)ccc2n1-c1cc(C(F)(F)F)ccc1O	-16%
COc1ccc(-c2[nH]ncc2-c2ccc3c(c2)OCCO3)c(O)c1	-20%
COc1ccccc1CN1CCN(C(=O)Cc2ccccc2)CC1	44%
COc1cc(N)c(Cl)cc1C(=O)NC1CCN(Cc2ccccc2)CC1	6%[12.8 µM]
O=C(CCC(=O)c1cccs1)OCC(=O)c1ccc(Cl)s1	-5%
COc1ncc2nc(C)c(=O)n(C3CC3)c2n1	32%
CN(C)c1ncc2nc(-c3cccs3)c(=O)n(C[C@H]3CCCO3)c2n1	2%
O=C(NC1CCCc2ccccc21)C1CCN(S(=O)(=O)c2cnc[nH]2)CC1 (centres undefined)	-7%
O=C(O)CCSCC(=O)Nc1c(C(=O)C2CC2)oc2ccccc12	0%
COc1ccc(NC(=O)CSc2nnc(-c3ccncc3)n2CC2CCCO2)c(OC)c1 (centres undefined)	11%
COc1ccc(OC)c(NC(=O)c2ccc(CN3CCOCC3)cc2)c1	61%
Cn1ccnc1Sc1nc(Nc2cccc(Cl)c2)nc(N2CCOCC2)n1	99%
CCCCC12CNCC(C)(CNC1)C2=O	-5%
Cc1cc(C)n2nc(C(=O)OCC(=O)Nc3ccc4c(c3)OCO4)nc2n1	-2%
c1ccc2c3nnc4n(c-3nc2c1)CCCS4	-7%
O=C(Nc1nccs1)C1CCCN1S(=O)(=O)c1ccc(F)cc1 (centres undefined)	0%
CN(C)c1ccc(C(=O)Nc2nc3c(s2)CCCC3)cc1	4%
CCCCCOC(=O)CSc1nc2c(c(=O)[nH]c(=O)n2C)n1Cc1ccc(Cl)cc1	7%
CCOC(=O)c1sc(NC(=O)C2CCCO2)c(C(=O)OC)c1C (centres undefined)	3%
Cc1ccc(S(=O)(=O)N2CCC(C(=O)Nc3nnc(COc4ccccc4)s3)CC2)cc1	-13%
C[C@@H](CNC1CCCCC1)OC(=O)c1ccccc1	-5%[12.8 µM]
CC[C@H](NC(=O)c1c(C)c(-c2ccccc2)nc2ccccc12)c1ccccc1	90%&76%
Cc1nnc2n1N=CC=C(c1ccccc1)S2	0%
O=C(CC1SC(=Nc2ccccc2)N(CCCCO)C1=O)NCc1ccccc1 (centres undefined)	97%
CCN1CCN(C(=O)N[C@H](C(=O)N[C@@H]2C(=O)N3C(C(=O)O)=C(CSc4nnnn4C)CS[C@@H]23)c2ccc(O)cc2)C(=O)C1=O	-11%[12.8 µM]

Following part:
SMILES	AmpC inh no det
c1ccoc1	-1%
C/C=C/COC(=O)c1[nH]c2c(c1C)C(=O)CC(c1ccc(N(C)C)cc1)C2 (centres undefined)	9%
CCCn1c(=O)c(C(=O)Nc2cnccn2)c(O)c2ccccc21	-10%
CCOP(=O)(C#CC(C)(C)C)C(C)(O)c1ccccc1 (centres undefined)	24%
CC(C)N1C(=O)C2C(C(=O)NC3CCCCC3)C3C=CC2(O3)C1C(=O)NC1CCCCC1 (centres undefined)	74%
CCN1CCN(C(=O)Nc2ccc(Cc3ccc(NC(=O)N4CCN(CC)CC4)cc3)cc2)CC1	80%
CCOC(=O)c1c(NC(=O)CNCC(O)CO)sc(C)c1C (centres undefined)	116%
COc1ccc(OC)c(NC(=O)CN(c2ccc(C)cc2)S(=O)(=O)c2c(C)noc2C)c1	43%
CN1C(=O)c2ccc(NC(=O)C3CCCCC3)cc2C1=O	-10%
COc1ccc(N2CCN(C(=O)Cn3nnc(-c4ccc(OC)c(OC)c4)n3)CC2)cc1	81%
CN(CC(=O)NC1CCCCC1)S(=O)(=O)c1cccc2nsnc12	21%
C=CCNS(=O)(=O)c1sccc1/C=N/O	-15%
COC(=O)[C@@]1(Cc2ccccc2)[C@H]2c3cc(C(=O)N4CCCC4)n(Cc4ccc(O)c(OC)c4)c3C[C@H]2CN1C(=O)c1ccccc1	144%
COc1cc(NC(=O)CCc2ccccc2)c(C(=O)O)cc1OC	3%
S=C1N[C@H](c2ccccc2)N[C@H](c2ccccc2)S1	-18%[5.75 µM]
Cc1cccc(C)c1NC(=O)Nc1ccc(S(N)(=O)=O)cc1	9%[5.75 µM]
Cc1nc2ccc(F)cc2cc1C(=O)NCc1ccco1	4%
O=C1CCCC2=C1C(c1cn(-c3ccccc3)nc1-c1cccs1)c1c([nH]c(=O)[nH]c1=O)N2 (centres undefined)	-14%
COCc1cc(=O)n2c([nH]c3ccccc32)c1C#N	-18%
Cc1cc2n(n1)C(c1sccc1C)Nc1ccccc1-2 (centres undefined)	17%
O=C1C2C3C=CC(O3)C2C(=O)N1CC(O)c1ccccc1 (centres undefined)	-7%
CN1/C(=C\C(=O)COc2ccc3c(c2)OCO3)C(C)(C)c2ccccc21	-16%
COc1ccc2[nH]c(C(=O)O)c(CCC(=O)O)c2c1	-3%
CCC(c1nnnn1Cc1cccs1)N1CCN(c2nc3ccccc3s2)CC1 (centres undefined)	36%
Cc1ccc(Nc2ncc3c(n2)CC(c2ccco2)CC3=O)c(C)c1 (centres undefined)	17%
O=C(CN1CCN(C(=O)c2cccc(F)c2)CC1)Nc1ccccc1F	21%
O=C(Nc1ccc2c(c1)Cc1ccccc1-2)c1ccco1	2%
CC(C)(C)NCc1cccn1-c1sc2c(c1C#N)CCCC2	16%

Screens deposited in PubChem by National Center for Advancing Translational Sciences (NCATS).

Not all compounds are listed; count on the stated rates, not on these rows.
